# RGS16-Gao = modulates binding between human RGS16 and Galphao; binding response (% of control), % at 10 µM; O15492+P09471; AID 1441; bead-based flow cytometry RGS16-Galphao binding, fluorescence; actives lie on both sides; 220,000 compounds, 0.38% hits;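 active = below 25% or above 175%, edge rows of some plates excepted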;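 also: Galphao activated by GDP with aluminum fluoride before binding; 100% = wells without compound and 0% = beads without RGS; some results beyond the cut were filed as inactive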
# GALR2 ag = GALR2 (human) receptor agonism; O43603; GALR2-expressing cells, agonist activation read-out; activation, %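 (tested at 5 µM)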; 140,000 compounds, 0.48% hits;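 active = above mean plus 3 SD of all compounds, about 5% in these data, not always enough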;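 also: 0% = vehicle buffer wells and 100% = reference agonist at full effect; tested in CHO reporter cells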
# HSV augment = HSV replication enhancement; maximum fold increase; HSV replication augmentation in cells, fold increase; AID 1956; 220,000 compounds, 0.005% hits;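 active = peak rise of 1.5-fold or more in the series; inconclusive = self-fluorescent or not available for retest; tested in PC3 cells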;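 also: first round at 10 µM; read as green reporter fluorescence; hits show the peak of a series up to 25 µM; 1 = signal of infected wells without compound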
# INS promoter inh = TRM-6 insulin promoter activity inhibition. TRM-6 cells (human fetal islet line), insulin promoter-eGFP reporter, imaging; reporter expression induced with tamoxifen. inhibition, % at 2 µM. 130,000 compounds, 0.9% hits;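 active = inhibition above the mean plus 3 SD, with well images judged a real hit on visual review, cut at about 60% in these data, passing the limit was not always enough; inconclusive = inhibition over the cutoff but images rejected on review; inactive = inhibition not above the cutoff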
# PKD1 kinase inh = blocks activity of human protein kinase D1 | AID 797 | 200,000 compounds, 0.056% hits | PKD1 kinase fluorescence polarization assay | inhibition, %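 (about 10 µM by stock and volumes)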 | Q15139;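 active = inhibition of 50% or more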;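 also: controls were vehicle for no effect and a reference inhibitor for full effect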
# Target sequence (Q15139 whole entry, looked up): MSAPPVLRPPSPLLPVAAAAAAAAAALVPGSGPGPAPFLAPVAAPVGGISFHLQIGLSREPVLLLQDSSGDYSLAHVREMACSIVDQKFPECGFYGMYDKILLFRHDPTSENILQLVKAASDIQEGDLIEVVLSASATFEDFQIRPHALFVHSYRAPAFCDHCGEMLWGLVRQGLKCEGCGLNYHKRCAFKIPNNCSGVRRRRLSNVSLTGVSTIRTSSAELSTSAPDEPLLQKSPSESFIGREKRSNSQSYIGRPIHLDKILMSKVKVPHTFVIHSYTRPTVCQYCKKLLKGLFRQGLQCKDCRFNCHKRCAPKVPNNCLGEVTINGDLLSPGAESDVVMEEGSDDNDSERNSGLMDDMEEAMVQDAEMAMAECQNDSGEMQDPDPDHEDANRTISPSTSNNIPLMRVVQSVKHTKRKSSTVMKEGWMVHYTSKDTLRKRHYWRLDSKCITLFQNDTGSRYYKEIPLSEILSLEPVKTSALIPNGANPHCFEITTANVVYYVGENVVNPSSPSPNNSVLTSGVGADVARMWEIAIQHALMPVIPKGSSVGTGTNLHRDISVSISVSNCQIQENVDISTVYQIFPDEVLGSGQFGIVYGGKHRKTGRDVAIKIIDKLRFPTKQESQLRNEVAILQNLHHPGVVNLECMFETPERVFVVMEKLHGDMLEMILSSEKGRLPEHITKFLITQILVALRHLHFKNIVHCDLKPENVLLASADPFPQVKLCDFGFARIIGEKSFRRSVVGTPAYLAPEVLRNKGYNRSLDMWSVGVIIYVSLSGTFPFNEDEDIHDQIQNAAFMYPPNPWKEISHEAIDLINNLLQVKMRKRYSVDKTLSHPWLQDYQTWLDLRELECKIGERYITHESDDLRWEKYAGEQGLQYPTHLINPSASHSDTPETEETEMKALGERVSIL
# INS promoter inh cell count = second read-out of INS promoter inh, no call of its own (marks repeat the call); normalized cell count, %; measured here: cell count, toxicity; reference of the scale not given here;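 cells exposed to compound for 48 h; stained nuclei by imaging scaled within each plate; lower means fewer cells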
# HSV augment primary fold = second read-out of HSV augment, no call of its own (marks repeat the call); fold increase; compound at 10 µM; measured here: primary screen fold increase 10 uM; tested in PC3 cells;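 GFP signal in the first replicate; 1 = infected wells without compound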
# Numbers without * were called inactive; i = inactive; u = inconclusive; x = not tested or not shown.
# Second line of a record: RGS16-Gao | GALR2 ag | HSV augment | HSV augment primary fold | INS promoter inh | INS promoter inh cell count | PKD1 kinase inh
- CCc1ccccc1S(=O)(=O)Cc1ccc(C(=O)NCc2cccs2)o1
→ 108 | x | i | 0.96 | -82 | 147 | -3
- C/C(CC(=O)Nc1ccc(Cl)cc1Cl)=N\NC(=O)c1ccco1
→ 104 | -0.7 | i | 1 | 7 | 100 | -3
- Cc1cc(C(C)(C)C)oc1C(=O)OCC(=O)NC1CCCCC1
→ 104 | x | i | 1 | -67 | 189 | -6
- Cc1ccc(NCC(=O)N/N=C\c2cccc(O)c2)cc1
→ 101 | x | i | 1.1 | x | x | 4
- O=C(Nc1ccc(-c2nnn(CC(=O)N3CCN(C(=O)c4ccco4)CC3)n2)cc1)c1ccc(F)cc1
→ 115 | x | i | 1 | -7 | 91 | 8
- CCOC(=O)c1ccccc1NC(=O)c1cccs1
→ 103 | 0.5 | i | 0.67 | x | x | -6
- c1ccc(CSc2ncnc3c2cnn3Cc2ccccc2)cc1
→ 115 | 0.3 | i | 0.83 | 28 | 119 | -6
- CC(C)c1ccc(S(=O)(=O)N2CCN(C(=O)c3cccc(F)c3)CC2)cc1
→ 109 | -0.3 | i | 0.94 | -270 | 72 | -1
- Cc1ccccc1NC(=O)C1C2CCCC1C2c1ccccc1 (configuration not stated)
→ 130 | -0.5 | i | 0.61 | -8 | 69 | -8
- ON1C2CCCCC2N(O)C1c1c(F)c(F)c(F)c(F)c1F (configuration not stated)
→ 77 | 0.9 | i | 1 | 36 | 110 | 1
- Cc1csc(NC(=O)CSc2nnc(-c3ccccn3)n2-c2ccc(C)c(C)c2)n1
→ 102 | -1.3 | u | x | x | x | -7
- Cc1ccc2c(c1)c1c3n2CCN(C(=O)Cn2c(-c4ccccc4)noc2=O)C3CCC1 (configuration not stated)
→ 97 | -2.9 | i | 0.89 | 7 | 125 | -12
- CCC(c1nnnn1CCOC)N1CCN(c2nc3ccccc3s2)CC1 (configuration not stated)
→ 107 | x | i | 0.99 | 46 | 125 | -2
- Cc1ccc(N2C(=O)C(Cl)=C(NCc3ccccc3)C2=O)c(C)c1
→ 107 | -3.5 | i | 0.94 | 24 | 119 | 0
- CN1CC(=O)N2[C@H](c3ccc4c(c3)OCO4)c3[nH]c4ccccc4c3C[C@@H]2C1=O
→ 93 | x | i | 0.91 | x | x | x

# Quoted from the listing.
# Reading of Cc1ccccc1NC(=O)C1C2CCCC1C2c1ccccc1 (configuration not stated) under PKD1 kinase inh: -8
# Reading of Cc1ccc2c(c1)c1c3n2CCN(C(=O)Cn2c(-c4ccccc4)noc2=O)C3CCC1 (configuration not stated) under PKD1 kinase inh: -12
# Reading of CN1CC(=O)N2[C@H](c3ccc4c(c3)OCO4)c3[nH]c4ccccc4c3C[C@@H]2C1=O under RGS16-Gao: 93

# (more compounds)
# Second line of a record: RGS16-Gao | GALR2 ag | HSV augment | HSV augment primary fold | INS promoter inh | INS promoter inh cell count | PKD1 kinase inh
- Cc1ccc(NC(=O)CCn2cccc2)cc1Cl
→ 106 | -0.6 | i | 0.95 | -27 | 90 | -7
- CCN(CC(=O)NCc1ccc(Cl)cc1)C(=O)/C=C/c1ccco1
→ 100 | x | i | 0.92 | x | x | 7
- COc1ccc(-n2c(C)c([N+](=O)[O-])c3ccc(O)c(CN(C)C)c32)cc1
→ 99 | -2.0 | x | x | 53 | 133 | 1
- COc1ccc(-n2cccc2/C=C2/NC(=O)N(c3cccc(Cl)c3)C2=O)cc1
→ 108 | 0.3 | i | 1.2 | 18 | 126 | 9
- CC(=O)Nc1ccccc1C(=O)C(=O)Nc1ccc(Cl)cc1
→ 101 | x | i | 0.91 | x | x | -5
- N/C(=N\OC(=O)Oc1ccccc1)c1ccc([N+](=O)[O-])cc1
→ 100 | -0.9 | x | x | -23 | 145 | 0
- O=C1CSC(c2ccccc2[N+](=O)[O-])N1c1ccccc1 (configuration not stated)
→ 108 | x | i | 1.1 | 55 | 91 | 7
- S=C(Nc1ccc(Oc2ccccc2)cc1)N(CCCN1CCOCC1)Cc1ccccn1
→ 98 | x | i | 0.9 | x | x | -10
- O=C(NC(Cc1c[nH]c2ccccc12)C(=O)N/N=C/c1ccc(Br)cc1)c1cccs1 (configuration not stated)
→ 102 | x | i | 1 | 28 | 112 | 1
- Cc1nn(-c2ccc(F)cc2)c(Cl)c1/C=N/NC(=O)c1ccc(O)cc1
→ 102 | x | i | 0.97 | x | x | -2
- COc1ccccc1N1CC(C(=O)Nc2cccc(C(=O)O)c2)CC1=O (configuration not stated)
→ 98 | -2.6 | i | 0.96 | -43 | 70 | -1
- NS(=O)(=O)c1ccc(CCNC(=O)C2CCCCN2S(=O)(=O)c2ccccc2)cc1 (configuration not stated)
→ 105 | -0.9 | i | 0.83 | -35 | 147 | -7
- Cc1nc([N+](=O)[O-])c(Sc2nc3ccccc3n2C)n1Cc1ccccc1
→ 106 | -0.4 | i | 0.52 | 57 | 85 | -4
- COc1ccc(S(=O)(=O)NCC2CCCN(Cc3ccc(C)o3)C2)cc1 (configuration not stated)
→ 91 | x | i | 1 | x | x | 7
- O=C(O)C1C2C=CC(C2)C1C(=O)NCCC1=CCCCC1 (configuration not stated)
→ 110 | -0.1 | i | 0.94 | -21 | 98 | 0

# More structures follow.
mol | RGS16-Gao | GALR2 ag | HSV augment | HSV augment primary fold | INS promoter inh | INS promoter inh cell count | PKD1 kinase inh
O=C(C1CCCO1)N1N=C(c2ccc(Br)cc2)CC1c1ccco1 (configuration not stated) | 104 | 1.0 | i | 0.9 | 11 | 130 | -12
CCOc1ccc(N2C(=O)C3C(c4ccc(O)cc4)NC(CCSC)(C(=O)OC)C3C2=O)cc1 (configuration not stated) | 105 | x | i | 0.94 | 0 | 85 | -9
CCN(CC)S(=O)(=O)c1cccc(NC(=O)COC(=O)c2ccc(Br)o2)c1 | 60 | -1.9 | i | 1 | -25 | 85 | -14
CCCCSc1nnc(-c2ccccc2)c2ccccc12 | 99 | 0.6 | i | 0.9 | x | x | -8
Cc1ccc(NC(=O)CCC(=O)NCCO)cc1 | 99 | -1.4 | i | 1 | -31 | 60 | -12
CCCCC(=O)Nc1ccc(C)c(O)c1 | 115 | -0.9 | i | 0.96 | x | x | 3
COCCSc1ccccc1C(=O)N1CCN(c2ccccc2)CC1 | 100 | x | i | 0.95 | x | x | -3
Cn1c(C(=O)O)ccc1S(=O)(=O)N(Cc1ccccc1)Cc1ccccc1 | 143 | x | i | 0.99 | x | x | x
O=C(c1cc2c(s1)-c1ccccc1OC2)N1CCc2ccccc2C1 | 61 | -0.1 | x | x | -27 | 68 | -8
COC(=O)C1=COC(OC2OC(CO)C(O)C(O)C2O)C2C1C=CC2(O)CO (configuration not stated) | 100 | x | i | 0.81 | x | x | x
CCCCOc1ccc(-c2ncc(C(=O)OCC)c(N)n2)cc1 | 104 | -4.1 | i | 0.98 | -30 | 127 | 3
Cc1cccc(OCCSc2nc3ncnc(N)c3[nH]2)c1 | 100 | x | i | 0.95 | 19 | 106 | -5
COc1cccc(C2CC(c3c(-c4ccccc4)c4cc(Cl)ccc4[nH]c3=O)=NN2S(C)(=O)=O)c1OC (configuration not stated) | 101 | 0.1 | i | 0.7 | 9 | 95 | -6
Cc1c(NC(=O)C(C)NCC2CCCO2)c(=O)n(-c2ccccc2)n1C (configuration not stated) | 106 | -1.1 | i | 1.1 | -63 | 65 | 2
COc1ccc(O[C@@H]2O[C@H](COC(C)=O)[C@@H](OC(C)=O)[C@H](OC(C)=O)[C@H]2NC(C)=O)cc1 | 96 | 1.1 | i | 0.92 | -17 | 97 | -8
Cc1ccc(-n2cccc2C(=O)NS(=O)(=O)c2ccc(C)cc2)cc1 | 103 | x | i | 1.2 | x | x | x
Cc1nc(S(=O)(=O)Cc2ccc(Cl)cc2)nc2c1CCC2 | 94 | x | i | 0.9 | 27 | 114 | -5
Cc1c2cnn(-c3ccccc3)c(=O)c2c(C)n1CCCC(=O)N1CCN(c2ncccn2)CC1 | 101 | 0.4 | i | 0.94 | -50 | 116 | -1
CCOC(=O)C1(CCCc2ccccc2)CCN(C(=O)CCC2=NNC(=O)CC2)CC1 | 101 | x | i | 1 | x | x | 0
Nc1nc(Nc2ccccc2F)nc(NCc2ccco2)c1[N+](=O)[O-] | 104 | x | i | 0.83 | x | x | x
Cc1cc2nc(-c3ccc4c(c3)CCC4)ccn2n1 | 95 | x | i | 0.95 | x | x | -3
CCc1c(C)[nH]c(=S)c(C#N)c1C | 99 | -0.5 | i | 1.1 | x | x | 6
C/C(N)=C(/C#N)C(=O)CSc1nc2cc(Cl)ccc2c(=O)n1Cc1ccco1 | 108 | x | i | 1 | 17 | 115 | -9
COc1ccccc1-c1nnc2sc(COc3ccc(Cl)cc3)nn12 | 105 | -0.4 | x | x | x | x | -10
O=C(NCCCc1ccccc1)c1ccncc1 | 110 | -1.0 | i | 0.93 | -26 | 92 | 1
COc1ccc(Nc2ccccc2N)cc1 | 95 | x | u | x | x | x | -4
O=C(CCSc1nc(-c2ccco2)cc(C(F)(F)F)n1)N1CCN(c2ccccc2)CC1 | 99 | -1.0 | i | 1.1 | -216 | 63 | 2
COc1ccc(/C=N/NC(=O)c2ccc3nc[nH]c3c2)cc1OC | 104 | x | i | 0.98 | x | x | x
CN(C)S(=O)(=O)N(CC(=O)Nc1ccccc1F)c1ccccc1 | 69 | -1.7 | i | 0.9 | -72 | 83 | 0
CC1(c2ccccc2Cl)NC(=O)N(CC(=O)NCc2ccco2)C1=O (configuration not stated) | 123 | x | i | 1.1 | x | x | -5
Cc1csc(Sc2nc3c(c(=O)[nH]c(=O)n3C)n2Cc2ccccc2Cl)n1 | 97 | -0.1 | i | 0.86 | 47 | 111 | -7
Cc1ccc(O)c(-c2cc(C(=O)Nc3c(C)n(C)n(-c4ccccc4)c3=O)[nH]n2)c1 | 101 | -0.9 | i | 0.86 | -7 | 117 | -5
Cc1ccc(NC(=S)N2CCN(Cc3ccc4c(c3)OCO4)CC2)c(C)c1 | x | 0.0 | i | 0.96 | -59 | 37 | -3
CN(C(=O)COc1ccccc1)c1nnc(-c2cccnc2)s1 | 95 | 1.5 | x | x | -6 | 140 | 14
CCOC(=O)c1cc(NC(=O)SCC(=O)O)c(C)nc1C | 91 | 0.1 | i | 1 | 12 | 78 | -7
COc1ccc(S(=O)(=O)Nc2ccc(F)cc2)c(C)c1C | 96 | -2.9 | i | 0.85 | -24 | 121 | -8
CC[C@H](C)[C@H](NC(=O)c1ccc(Cl)cc1)C(=O)OCC(=O)c1ccc2c(c1)NC(=O)CO2 | 100 | 5.7 | i | 0.93 | -23 | 100 | 0
Cc1ccc(N(CC(=O)NC2CC3CCC2C3)S(C)(=O)=O)cc1C (configuration not stated) | 104 | -1.6 | i | 0.9 | x | x | -8
Cn1c(Oc2ccccc2)c(C=O)c2ccccc21 | 96 | -1.9 | i | 0.91 | -21 | 124 | 0
Cc1ccc(-c2nnc(Nc3ccc4c(c3)OCO4)c3ccccc23)cc1S(=O)(=O)NC(C)C | 94 | 0.3 | i | 0.89 | 29 | 86 | 5
O=C(/C=C/c1cccc([N+](=O)[O-])c1)NCc1ccccc1 | 105 | x | i | 1 | 19 | 81 | -3
CCc1nn2c(N(C)CCO)cc(C)nc2c1-c1ccc(F)cc1 | 114 | x | i | 0.97 | 7 | 109 | 1
COc1ccc(Nc2nc(NCc3ccco3)nc(N/N=C/c3ccc(O)cc3)n2)cc1 | 100 | 0.0 | i | 0.85 | -40 | 146 | -17
CC(=O)Nc1ccc(S(=O)(=O)NCCC(=O)NCCc2ccc(F)cc2)cc1 | 102 | -1.2 | i | 1 | -46 | 59 | -5
CCN(CC)S(=O)(=O)c1ccc2c(c1)nc(CCC(=O)OCC(=O)Nc1cc(OC)cc(OC)c1)n2C | 118 | -0.6 | i | 0.97 | 25 | 118 | -3
CCCCOc1ccc(C(=O)Nc2ccc(N3CCN(C)CC3)cc2)cc1 | 98 | -0.3 | i | 0.85 | 54 | 166 | -1
CCOC(=O)C(=NCCCN(C)C)NNc1cc(C(F)(F)F)ccc1Cl | 90 | x | i | 0.95 | -71 | 90 | -3
CCCc1ccc(C(=O)N2CCN(c3ccccc3OCC)CC2)cc1 | 103 | -1.1 | i | 0.98 | 10 | 84 | -5

# In the list so far, these have bromine:
mol | RGS16-Gao | GALR2 ag | HSV augment | HSV augment primary fold | INS promoter inh | INS promoter inh cell count | PKD1 kinase inh
O=C(NC(Cc1c[nH]c2ccccc12)C(=O)N/N=C/c1ccc(Br)cc1)c1cccs1 (configuration not stated) | 102 | x | i | 1 | 28 | 112 | 1
O=C(C1CCCO1)N1N=C(c2ccc(Br)cc2)CC1c1ccco1 (configuration not stated) | 104 | 1.0 | i | 0.9 | 11 | 130 | -12
CCN(CC)S(=O)(=O)c1cccc(NC(=O)COC(=O)c2ccc(Br)o2)c1 | 60 | -1.9 | i | 1 | -25 | 85 | -14

# Compounds as they come. Share with any hit: about 1.3%.
